Ecoli rRNA inh = reduced GFP signal of wild-type E. coli, primary screen, bacterial rRNA inhibitor project, GFP/RFP fluorescence, OD600, single point | E. coli WT GFP vs humanized-ribosome RFP mutants, 24 h; hits give low values; DMSO median 0, no signal -100 | GFP signal change (wild-type ribosome), % (concentration not given with the values) | actives 1.6% (n = 350,000) | AID 720706, 2013;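 active means significant combined selectivity score with lowered wild-type GFP, culture density cut under 30%, mutant RFP and density less affected; inactive means any of these conditions unmet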; further: one replicate is shown; some compounds called inactive have numbers as strong as hits
FGF22 binding = binders of human FGF22 protein, primary screen, FGF22 synaptogenesis inhibitor project, biophysical, thermal shift, single point. Fibroblast growth factor 22 (Homo sapiens), Q9HCT0. actives 1.5% (n = 340,000). recombinant FGF22 thermal shift, SYPRO orange fluorescence; percent of sucrose octasulfate shift, DMSO zero. AID 651658, 2012. calls only at 9.99 µM;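 active means melting point raised past a set limit in the mean and every replicate; three in four hits are not shown here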
Target sequence (Q9HCT0 whole entry, looked up): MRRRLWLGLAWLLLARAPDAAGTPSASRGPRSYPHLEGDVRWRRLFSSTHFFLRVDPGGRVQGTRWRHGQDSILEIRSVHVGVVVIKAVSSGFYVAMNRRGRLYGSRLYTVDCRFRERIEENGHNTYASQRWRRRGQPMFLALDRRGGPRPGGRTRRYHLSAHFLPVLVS
Ecoli rRNA inh OD600 = also measured in Ecoli rRNA inh; calls as there; OD600 change, %; measured here: OD600 growth;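 optical density of the mix in the first replicate; 0 = DMSO median and -100 = no signal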
Ecoli rRNA inh RFP = also measured in Ecoli rRNA inh; calls as there; RFP signal change, %; measured here: RFP humanized mutant strains;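 first replicate; 0 = DMSO median and -100 = no signal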
* hit, by the source's call; i = inactive. Not all compounds are listed; rates above refer to the full screens.

SMILES	Ecoli rRNA inh	Ecoli rRNA inh OD600	Ecoli rRNA inh RFP	FGF22 binding
N#C[C@@H]1[C@H](c2ccccc2-c2cccc(F)c2)[C@@H](CO)N1C(=O)C1CCC1	-8	-17	-4.4	i
CN1C(=O)c2cc(NC(=O)C3CCOCC3)ccc2OC[C@@H]2O[C@@H](CC(=O)NCC3CC3)CC[C@H]21	1	-1	-3.3	i
C[C@@H]1CN([C@H](C)CO)C(=O)c2cc(-c3ccccc3F)cnc2O[C@@H]1CN(C)Cc1ccccc1	2	-1	0.0	i
O=C(N[C@H]1CC[C@H](CCNC(=O)C2CC2)O[C@@H]1CO)c1ccncc1	1	-3	-0.3	i
CCCNC(=O)N1CC2(CCN(Cc3ccncc3)CC2)c2c(n(C)c3cc(OC)ccc23)[C@H]1CO	2	5	-0.7	i
C[C@H]1CN([C@@H](C)CO)C(=O)c2cc(C3=CCCCC3)cnc2O[C@H]1CN(C)Cc1ccc(C(=O)O)cc1	2	-2	1.4	i
CC(=O)N(C)C[C@@H]1Oc2cc(-c3ccccc3F)ccc2S(=O)(=O)N([C@@H](C)CO)C[C@@H]1C	-3	1	2.7	i
O=C(CN1CCOCC1)N1CC(=O)N2[C@H](CO)[C@@H](c3ccc(/C=C/c4ccccc4)cc3)[C@@H]2C1	-1	-2	-1.1	i
COc1ccc(NC(=O)N(C)C[C@@H]2OCc3ccccc3-c3ccccc3C(=O)N([C@H](C)CO)C[C@@H]2C)cc1	-1	4	-1.5	i
C[C@H](CO)N1C[C@H](C)[C@@H](CN(C)Cc2ccc(Cl)c(Cl)c2)Oc2ccc(NC(=O)Nc3ccc(C(F)(F)F)cc3)cc2CC1=O	4	-4	1.2	i
O=C(CN1CCOCC1)N[C@H]1CC[C@H](CCNC(=O)C2CCC2)O[C@@H]1CO	1	0	-2.9	i
N#C[C@@H]1[C@@H](c2ccccc2)[C@@H](CO)N1S(=O)(=O)c1cccc(F)c1	-1	2	2.9	i
CC(C)CC#Cc1ccc([C@H]2[C@@H](CO)N3CCCCN(S(=O)(=O)c4ccc(F)cc4)C[C@@H]23)cc1	1	9	-3.4	i
C[C@H]1CN([C@@H](C)CO)C(=O)c2cc(NC(=O)Cn3cnnn3)ccc2O[C@@H]1CN(C)Cc1ccc(C(F)(F)F)cc1	0	-7	0.8	i
CCOC(=O)C1=CCN(S(=O)(=O)c2cccc(Cl)c2)C1c1cccc(Cl)c1 (stereo not drawn)	-12	-31	-4.7	i
C[C@@H]1CN([C@@H](C)CO)C(=O)CCCn2cc(nn2)CO[C@@H]1CN(C)C(=O)NC1CCCC1	1	2	-1.7	i
C[C@H](CO)N1C[C@H](C)[C@H](CN(C)C(=O)NC2CCCC2)Oc2ncc(C3=CCCC3)cc2C1=O	-8	-6	0.6	i
O=C(Nc1cc(F)ccc1F)N1CC(=O)N2[C@@H](CO)[C@H](c3ccc(C#CC4CCCCC4)cc3)[C@@H]2C1	2	-14	4.3	i
Cc1ccc(-c2ccc([C@@H]3[C@H](CO)N4C(=O)CN(C(=O)NC(C)C)C[C@@H]34)cc2)cc1	-2	8	0.8	i
CC(C)NC(=O)N[C@@H]1CC[C@@H](CCNC(=O)C2CCC2)O[C@@H]1CO	1	-1	-1.4	i
CC(C)CC#Cc1ccc([C@H]2[C@@H](CO)N3CCCCN(C(=O)NC4CCCC4)C[C@@H]23)cc1	-35	-42	1.5	i
C[C@@H]1CN([C@@H](C)CO)C(=O)c2cccc(NC(=O)c3ccc(-c4nccs4)cc3)c2O[C@@H]1CN(C)S(=O)(=O)c1ccc(Cl)cc1	3	4	5.4	i
O=C(C[C@H]1C[C@H]2c3cc(NC(=O)C4CCOCC4)ccc3O[C@H]2[C@@H](CO)O1)NCc1ccc2c(c1)OCO2	3	-4	1.0	i
C/C=C/c1cnc2c(c1)C(=O)N([C@H](C)CO)C[C@H](C)[C@@H](CN(C)C(=O)Nc1ccc(OC)cc1)O2	2	1	-1.6	i
COCC(=O)N[C@@H]1CC[C@@H](CC(=O)N2CCCCC2)O[C@@H]1CO	2	2	-0.4	i
COc1ccc(S(=O)(=O)Nc2ccc3c(c2)C(=O)N([C@H](C)CO)C[C@@H](C)[C@H](CN(C)Cc2ccc(C(=O)Nc4ccccc4N)cc2)O3)cc1	-1	1	-0.4	i
O=C(C1CCC1)N1C[C@H]2[C@@H](c3ccccc31)[C@H](CO)N2S(=O)(=O)c1ccccc1	0	-5	-2.6	i
C[C@H](NC(=O)C[C@H]1C[C@@H]2c3cc(NC(=O)Cc4ccncc4)ccc3O[C@@H]2[C@H](CO)O1)c1ccccc1	3	7	-0.8	i
CC(C)NC(=O)Nc1ccc2c(c1)C(=O)N([C@H](C)CO)C[C@@H](C)[C@H](CN(C)Cc1ccc(C(=O)O)cc1)O2	2	-4	-1.4	i
CNC[C@H]1Oc2ccc(NC(=O)CCCN(C)C)cc2CC(=O)N([C@H](C)CO)C[C@@H]1C	5	5	0.1	i

4 compounds from above, arranged by length of the SMILES, largest number first.
SMILES	Ecoli rRNA inh	Ecoli rRNA inh OD600	Ecoli rRNA inh RFP	FGF22 binding
O=C(C[C@H]1C[C@H]2c3cc(NC(=O)C4CCOCC4)ccc3O[C@H]2[C@@H](CO)O1)NCc1ccc2c(c1)OCO2	3	-4	1.0	i
C[C@H](CO)N1C[C@H](C)[C@H](CN(C)C(=O)NC2CCCC2)Oc2ncc(C3=CCCC3)cc2C1=O	-8	-6	0.6	i
C[C@@H]1CN([C@@H](C)CO)C(=O)CCCn2cc(nn2)CO[C@@H]1CN(C)C(=O)NC1CCCC1	1	2	-1.7	i
CNC[C@H]1Oc2ccc(NC(=O)CCCN(C)C)cc2CC(=O)N([C@H](C)CO)C[C@@H]1C	5	5	0.1	i

Further entries follow:
SMILES	Ecoli rRNA inh	Ecoli rRNA inh OD600	Ecoli rRNA inh RFP	FGF22 binding
Cc1noc(C)c1NC(=O)N(C)C[C@@H]1Oc2c(NC(=O)c3ccncc3)cccc2C(=O)N([C@H](C)CO)C[C@H]1C	7	10	-1.8	i
CC(=O)N(C)C[C@@H]1Oc2cc(-c3ccc(F)cc3)ccc2S(=O)(=O)N([C@@H](C)CO)C[C@H]1C	-7	-9	-2.0	i
O=C(CCN1CCCCC1)N[C@@H]1CC[C@@H](CCn2cc(-c3ccc(F)cc3)nn2)O[C@H]1CO	-1	0	3.5	i
C[C@@H]1CCCCO[C@@H](CN(C)C(=O)C2CCCCC2)[C@@H](C)CN([C@@H](C)CO)C(=O)c2cc(NC(=O)Nc3cccc4ccccc34)ccc2O1	2	-4	-0.3	i
COc1ccc2c3c(n(C)c2c1)[C@H](CO)N(S(=O)(=O)c1cn(C)cn1)CC31CCN(C)CC1	-1	16	-2.4	i
COCC(=O)N(C)C[C@H]1Oc2ncc(C#Cc3ccncc3)cc2C(=O)N([C@@H](C)CO)C[C@@H]1C	5	12	0.7	i
COc1ccccc1-c1ccc2c(c1)[C@@H]1[C@@H](CCN1S(=O)(=O)c1cccc(C)c1)[C@H](CO)N2	2	-3	8.6	i
COCC(=O)Nc1ccc2c(c1)OC[C@H](C)N(C(=O)c1ccncc1)C[C@H](C)[C@@H](OC)CN(C)C2=O	1	3	-1.9	i
Cc1noc(C)c1NC(=O)Nc1ccc2c(c1)C(=O)N([C@@H](C)CO)C[C@@H](C)[C@H](CN(C)C)OCCCC[C@@H](C)O2	5	13	2.3	i
COc1ccc2c3c(n(C)c2c1)[C@H](CO)N(C)CC31CN(C(=O)c2cccnc2)C1	1	9	-1.6	i
COc1ccc(CN(C)C[C@H]2OCCCC[C@@H](C)Oc3ccc(NS(=O)(=O)c4c(C)noc4C)cc3C(=O)N([C@H](C)CO)C[C@@H]2C)cc1	1	6	3.8	i
C[C@@H]1CN([C@H](C)CO)C(=O)CCCn2cc(nn2)CO[C@@H]1CN(C)C(=O)Nc1ccc(N2CCN(C)CC2)cc1	0	7	-0.9	i
CCC(=O)N1CCC2(CC1)CN(S(=O)(=O)c1ccccc1)[C@H](CO)c1[nH]c3cc(OC)ccc3c12	-6	-10	-1.5	i
C[C@H]1CCCCO[C@@H](CN(C)C(=O)Nc2ccc(F)cc2)[C@@H](C)CN([C@@H](C)CO)C(=O)c2cc(NS(=O)(=O)c3ccc(F)cc3)ccc2O1	2	-2	1.6	i
CN1C(=O)c2cc(NC(=O)c3ccc(F)cc3)ccc2OC[C@H]2O[C@H](CC(=O)NC3CCC3)CC[C@@H]21	3	-1	-2.0	i
CN(C)C(=O)C[C@H]1CC[C@H]2[C@@H](COC[C@@H](O)CN2Cc2nccs2)O1	-5	8	-4.9	i
C[C@H](CO)N1C[C@H](C)[C@@H](CN(C)C(=O)NC2CCCCC2)Oc2ccc(NS(C)(=O)=O)cc2CC1=O	0	-1	-1.0	i
O=C(C1CCOCC1)N1C[C@@H]2[C@H](c3ccccc31)[C@@H](CO)N2Cc1ccccc1Cl	-3	0	-0.8	i
C[C@H]1CN([C@@H](C)CO)C(=O)c2cc(NC(=O)Nc3ccc4c(c3)OCO4)ccc2O[C@H]1CN(C)C(=O)Nc1ccc(F)cc1	-3	-6	2.7	i
C[C@H]1CN([C@@H](C)CO)C(=O)Cc2cc(NC(=O)Cc3ccccc3)ccc2O[C@H]1CN(C)S(=O)(=O)c1cn(C)cn1	5	6	-1.5	i
C[C@H](CO)N1C[C@H](C)[C@@H](CN(C)C(=O)C2CCOCC2)Oc2ncc(-c3ccncc3)cc2C1=O	6	10	-1.8	i
C/C=C/c1ccc2c(c1)O[C@H](CN(C)C(=O)Nc1ccc(C(F)(F)F)cc1)[C@@H](C)CN([C@H](C)CO)S2(=O)=O	2	-3	2.2	i
C[C@@H]1CCCCO[C@H](CN(C)Cc2ccncc2)[C@@H](C)CN([C@@H](C)CO)C(=O)c2cc(NS(=O)(=O)c3cccs3)ccc2O1	0	-8	-2.4	i
CCCC(=O)N1CCC2(CC1)CN(Cc1ccncc1)[C@H](CO)c1[nH]c3cc(OC)ccc3c12	4	11	11	i
C[C@@H]1CN([C@H](C)CO)C(=O)c2cc(C#CCN(C)C)cnc2O[C@H]1CN(C)C(=O)Nc1cccc(F)c1	0	0	-1.8	i
C[C@H]1CCCCO[C@H](CN(C)Cc2ccccc2)[C@@H](C)CN([C@@H](C)CO)C(=O)c2cc(NC(=O)NC3CCCCC3)ccc2O1	1	-7	3.3	i
CO[C@H]1CN(C)C(=O)c2cc(NC(=O)C3CC3)ccc2OC[C@H](C)N(CC2CCCC2)C[C@@H]1C	2	2	-1.6	i
CC(C)NC(=O)N1CCCCN2[C@H](CO)[C@H](c3ccc(C#Cc4ccccc4)cc3)[C@@H]2C1	-58	-74	-6.9	i
CC(C)NC(=O)N1C[C@@H]2[C@H](c3ccccc31)[C@H](CO)N2C(=O)c1ccccc1F	5	5	-2.8	i
C[C@H]1CCCCO[C@@H](CN(C)C(=O)c2ccccc2)[C@@H](C)CN([C@@H](C)CO)C(=O)c2cc(NC(=O)C3CCCCC3)ccc2O1	2	-7	1.2	i
CO[C@@H]1CN(C)C(=O)c2cc(NS(C)(=O)=O)ccc2OC[C@@H](C)N(C(=O)C2CC2)C[C@@H]1C	0	2	-0.2	i
C[C@H]1CN([C@@H](C)CO)C(=O)c2cc(-c3cccc(F)c3)cnc2O[C@@H]1CN(C)C(=O)c1ccccn1	0	8	-2.7	i
Cc1ccc(-c2cnc3c(c2)C(=O)N([C@H](C)CO)C[C@@H](C)[C@@H](CN(C)C(=O)c2cccc(F)c2)O3)cc1	-2	8	-3.4	i
CCCN1C[C@@H](C)[C@H](OC)CN(C)C(=O)c2ccc(NC(=O)c3ccccc3F)cc2OC[C@@H]1C	-4	-2	-0.8	i
COc1ccccc1CNC(=O)C[C@@H]1C[C@@H]2c3cc(NC(=O)c4ccc5c(c4)OCO5)ccc3O[C@@H]2[C@H](CO)O1	-7	-7	-4.2	i
CO[C@H]1CN(C)C(=O)c2cc(NC(C)=O)ccc2OC[C@H](C)N(Cc2ccccn2)C[C@H]1C	-1	-4	-0.9	i
CN1c2ccc(-c3ccccc3F)cc2[C@H]2[C@H](CCN2C(=O)Cc2ccccn2)[C@@H]1CO	1	0	-1.8	i
C[C@@H]1CN([C@@H](C)CO)C(=O)c2cc(NS(=O)(=O)c3ccc(Cl)cc3)ccc2O[C@@H]1CN(C)S(=O)(=O)c1ccccc1	0	-8	1.3	i
CC=Cc1ccc2n(c1=O)C[C@H]1[C@H](CO)[C@@H](C(=O)NCc3cccc(OC)c3)N[C@@H]21 (mixture of isomers)	0	-3	-0.7	i
COCC(=O)N1CC2(CN(Cc3ccccc3)C2)c2c(n(C)c3cc(OC)ccc23)[C@@H]1CO	-1	-1	-1.9	i

Whole records as entered above. Order of values: Ecoli rRNA inh | Ecoli rRNA inh OD600 | Ecoli rRNA inh RFP | FGF22 binding
`CC=Cc1ccc2n(c1=O)C[C@H]1[C@H](CO)[C@@H](C(=O)NCc3cccc(OC)c3)N[C@@H]21` (mixture of isomers) across the screens: 0 | -3 | -0.7 | i
`C[C@@H]1CN([C@H](C)CO)C(=O)CCCn2cc(nn2)CO[C@@H]1CN(C)C(=O)Nc1ccc(N2CCN(C)CC2)cc1` across the screens: 0 | 7 | -0.9 | i
`COCC(=O)N(C)C[C@H]1Oc2ncc(C#Cc3ccncc3)cc2C(=O)N([C@@H](C)CO)C[C@@H]1C` across the screens: 5 | 12 | 0.7 | i

Bioassay records: PubChem, Broad Institute
